RecA splice inh: Mtb RecA intein splicing inhibitors, primary screen, biochemical, fluorescence, HTS; cell-free RecA intein splicing; AID 2221, 2009; 290,000 tested, 0.75% active; inhibition, %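 (about 9 µM by stock and volumes)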; in the data active means inhibition above about 30%; inconclusive means no clear call, values can overlap the other calls;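 further: 0% = vehicle wells and 100% = reference inhibitor control wells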
Target sequence (P9WHJ3 whole entry, looked up, canonical isoform): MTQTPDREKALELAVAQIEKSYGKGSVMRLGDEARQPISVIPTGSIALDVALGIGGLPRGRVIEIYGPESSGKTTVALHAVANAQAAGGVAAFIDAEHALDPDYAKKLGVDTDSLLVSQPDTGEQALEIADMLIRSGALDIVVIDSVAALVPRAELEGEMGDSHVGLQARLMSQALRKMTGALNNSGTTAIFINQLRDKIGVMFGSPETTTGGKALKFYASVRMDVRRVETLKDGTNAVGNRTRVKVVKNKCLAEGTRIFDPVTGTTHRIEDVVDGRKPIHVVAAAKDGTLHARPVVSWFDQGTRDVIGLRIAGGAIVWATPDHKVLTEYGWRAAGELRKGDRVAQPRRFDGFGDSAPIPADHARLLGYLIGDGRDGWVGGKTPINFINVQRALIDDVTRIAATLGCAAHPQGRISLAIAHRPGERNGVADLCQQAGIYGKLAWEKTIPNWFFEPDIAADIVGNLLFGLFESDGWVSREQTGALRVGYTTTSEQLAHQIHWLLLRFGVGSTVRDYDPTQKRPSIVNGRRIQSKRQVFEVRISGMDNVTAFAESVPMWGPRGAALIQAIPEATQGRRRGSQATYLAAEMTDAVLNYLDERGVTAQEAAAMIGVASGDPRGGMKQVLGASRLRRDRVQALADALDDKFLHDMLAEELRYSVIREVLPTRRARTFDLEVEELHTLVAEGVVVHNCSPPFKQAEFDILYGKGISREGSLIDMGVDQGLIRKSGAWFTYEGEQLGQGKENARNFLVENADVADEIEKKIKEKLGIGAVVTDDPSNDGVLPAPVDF
Mtb growth: M. tuberculosis H37Rv growth inhibitors, H37Rv strain (AID 1626) | M. tuberculosis H37Rv growth inhibition; higher % means a stronger effect | inhibition, % at 10 µM; hits with a dose series show IC50 in µM | 220,000 tested, 0.95% active;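 active means confirmed in a dose series; inconclusive means inhibition above 80% but not taken into the dose series; inactive means below 80% or under 30% at every dose of the series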;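 further: bacteria incubated seven days before Alamar blue readout; 0% = bacteria only wells and 100% = bacteria with antibiotic wells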
YopH PTP inh: YopH tyrosine phosphatase inhibitors, primary screen, biochemical, fluorescence Ex485/Em525. YopH tyrosine phosphatase [Yersinia enterocolitica]. inhibition, %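 (about 10 µM by stock and volumes)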. 140,000 tested, 0.16% active;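 active means inhibition of 50% or more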;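 further: controls were vehicle for no effect and minimum signal wells for full effect; inactives centre near -20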
Mtb bLac sens: beta-lactam sensitization of Mtb H37Rv, H37Rv; M. tuberculosis H37Rv growth with meropenem, percent inhibition; hits of this screen are not shown here; inhibition, % at 25 µM; 330,000 tested, 0.27% active;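 active means about 74% or more and at least 40 points above the plate without the antibiotic, then above 30% in a dose series; inconclusive means first-round hits that could not be retested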;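 further: growth measured after seven days incubation then overnight dye step; 0% = bacteria only wells and 100% = bacteria with antibiotic; twin plates without the antibiotic show which effects depend on it; some results filed as inactive read as strong as hits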
Arbovirus anti: antivirals against arbovirus infection, primary screen, cell-based, full library, 10K replicate subset; arbovirus infection cell-based antiviral screen; AID 1251, 2008; inhibition, % at 10 µM; 200,000 tested, 0.37% active;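 active means inhibition from about 30%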;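 further: bluetongue infection of BSR cells; cell survival read as ATP light after 72 h; 0% = infected wells without compound and 100% = uninfected wells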
Arbovirus anti repeat: also measured in Arbovirus anti; calls as there; inhibition, %; measured here: 10K subset replicate screen; many hits read low in the repeat;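 first of two repeat runs on a subset; 0% = infected and 100% = uninfected wells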
An asterisk follows results filed as active; ? = inconclusive; · = no result given; & = joins results of further samples. Not all compounds are listed, so the mix of outcomes need not match the whole.

SMILES	RecA splice inh	Mtb growth	YopH PTP inh	Mtb bLac sens	Arbovirus anti	others
COc1cc(/C=N/NC(=O)CC2(C)OCCCO2)ccc1OCc1ccc(Cl)cc1Cl	1.7	13%	-22	6	-17
CCOc1cccc(C2C(C#N)=C(N)Oc3cc(C)n(Cc4ccccn4)c(=O)c32)c1OCC (stereo not given)	-0.1	0%	-3	-6	-2
O=c1c2ccccc2nc(COc2ccccc2)n1/N=C/c1c[nH]c2ccccc12	-4.2	8%	-20	-7	2
CCOc1ccc2nc(SCC(=O)NCc3ccco3)sc2c1	-1.2	-1%	-41	0	-2
Cc1cc(C(=O)OCC(=O)Nc2ccccc2F)c(C)o1	-4.2	2%	15	0	7
C[C@](N)(Cc1ccc(O)c(O)c1)C(=O)O	·	-12%	-5	·	6
NC(=O)C[n+]1cccc(C(=O)Nc2ccccc2)c1	-2.3	·	·	-6	·
COCC(=O)OCn1nnc2ccccc2c1=O	-3.0	1%	-41	7	3
COc1ccc(N/C=C(\C2OC(=O)c3ccccc32)[N+](=O)[O-])cc1 (stereo not given)	-7.1	90%	·	-2	-16
c1ccc(-c2nc3ccccc3c3nncn23)cc1	-2.8	·	-28	9	-7
O=C(Nc1ccc2nc3n(c(=O)c2c1)CCCCC3)C(=O)N1CCN(c2ccccc2)CC1	-1.7	·	·	4	·
O=C(NCCc1ccccc1)C1COc2ccccc2O1 (stereo not given)	-2.5	·	·	14	·
COc1cc(/C=C2\C(=O)NN(c3ccccc3)C2=O)ccc1OCC(N)=O	-3.2	-2%	·	-6	-38
Cc1cc2cc(OCc3ccccc3)ccc2n1C	-2.0	·	·	0	·
CCCNC(=O)c1ccc2c(=O)c(O)c(C)[nH]c2c1	-27	10%	·	-8	·
CCN1CCN(c2nc3sc4c(c3c3ncnn23)CC(C)CC4)CC1 (stereo not given)	1.4	8%	-46	85	-6
O=C(Cc1ccc([N+](=O)[O-])cc1)Nc1ccc(Br)cn1	0.1	·	·	4	·
COC(=O)C1CCN(C(=O)COC(=O)C2CCN(S(=O)(=O)c3c(Cl)cccc3Cl)CC2)CC1	0.8	·	·	-5	·
CC(=O)Nc1ccc(C(=O)N/N=C/c2ccc(F)cc2)cc1	-0.6	7%	·	4	1
CC(=O)Nc1ccc(NC(=O)COc2ccc(Cl)cc2Cl)cc1	-6.1	·	·	5	·
N#C/C(=C\c1ccc(OC(F)F)cc1)C(=O)N1CCCCC1	4.6	3%	·	2	·
O=C(/C=C/c1ccc(F)cc1)N1CC[C@@]2(O)CCCC[C@H]2C1	0.1	-7%	·	-6	·
CC(Sc1ccccc1)C(=O)NN=C1CCN(C)CC1 (stereo not given)	-2.2	-4%	·	-6	2
OCCC1CN(Cc2cc(F)ccc2-n2cccn2)CCN1Cc1ccc(F)cc1 (stereo not given)	2.1	-4%	·	1	·
O=C1/C(=C/c2cccnc2)Oc2cc(OS(=O)(=O)c3ccc(Cl)cc3)ccc21	8.0	14%	-9	45	11
Cc1cc(C)n2cc(COc3ccc4ccccc4c3)nc2n1	-0.7	-1%	-35	-2	-8
O=C(NCC1CCCO1)C1CCN(S(=O)(=O)c2cccnc2)CC1 (stereo not given)	-2.6	-1%	11	55	5
O=C(CSC1=N/C(=C/c2ccc(Cl)c(Cl)c2)C(=O)N1c1ccccc1F)NC1CC1	2.7	57%	-16	6	14
O=C(NCC1CCCO1)C(=O)N/N=C/c1ccc(O)c(Cl)c1 (stereo not given)	-1.3	-6%	·	-4	·
CCc1ccccc1N1CC23C=CC(O2)C(C(=O)O)C3C1=O (stereo not given)	-0.2	-8%	-10	0	9	Arbovirus anti repeat=-2
CCOCCCNc1c2c(nc3cc(-c4ccc(F)cc4)nn13)CCC2	-1.1	8%	·	-2	-5
CCOc1cc(/C=N/Nc2nc3ccccc3[nH]2)cc(Br)c1OCC(=O)N(C)C	2.8	2%	·	9	-13
Cc1c(C(C)(C)C)c(C=S)n2ccccc12	5.3	5%	-20	-8	12
CC(=O)NS(=O)(=O)c1ccc(NC(=O)CCc2ccccc2)cc1	-9.7	4%	-30	-6	-3
CCc1ccc(CN2CCC(n3nccc3NC(=O)C3CCCC3)CC2)cc1	0.2	·	·	?	·
CN1c2ccccc2C(C)(C)C12C=Cc1cc(O)ccc1O2 (stereo not given)	5.9	2%	-43	2	-46
Cc1ccc2c(CN(C)Cc3ccccc3)cc(=O)oc2c1C	-2.3	·	·	1	·
COc1ccc(NC(=O)C2C(=O)N(CCO)C3(C)CC2c2ccccc2O3)cc1 (stereo not given)	0.7&2.0	8%	-45	6	-3
CC1CC(C)CN(S(=O)(=O)N2CCCC(C(=O)NC3CCCCC3C)C2)C1 (stereo not given)	-5.3	·	·	-3	·
Cc1ccc(NS(=O)(=O)c2ccc(NC(=O)[C@@H]3CCCC[C@@H]3C(=O)O)cc2)c(C)c1	1.8	1%	-9	-8	12
CCOc1ccc(C(=O)COC(=O)c2ccc(-n3cnnn3)cc2)cc1	-3.7	·	·	7	·
CC(C)CNC(=O)c1cccc(Cn2cc(Cl)cn2)c1	-0.9	-5%	-52	-15	-1
COc1ccc(CC(=O)N/N=C/c2cccnc2)cc1OC	-1.5	·	·	2	·
CCN(CC(=O)Nc1c(F)cccc1F)C(=O)CCc1nc2cc(S(=O)(=O)N(C)C)ccc2n1CC	-2.8	·	·	5	·
CCC(C)c1ccccc1NC(=O)COC(=O)c1ccc2c(c1)S(=O)(=O)c1ccccc1C2=O (stereo not given)	3.0	-3%	-17	8	5
O=C(O)CCN1C(=O)c2ccncc2C1=O	0.2	-3%	-12	11	3
O=C(COC(=O)c1nc(Cl)ccc1Cl)Nc1ccc2c(c1)OCO2	-2.7	-8%	·	3	1
COc1ccc(OCCN(C)Cc2ccccc2)cc1	-1.2	-7%	8	-4	3
C=CCc1ccc(OCCOCCOc2cccc3ccc(C)nc23)c(OC)c1	1.3	4%	-24	2	15
O=C(Nc1cscc1S(=O)(=O)c1ccc(Cl)cc1)c1ccccc1Cl	11	5%	·	-4	·
COc1ccc(C(=O)N(CCc2ccccc2)Cc2cccs2)c(OC)c1	9.6	·	·	6	·
O=C(Nc1cccc([N+](=O)[O-])c1)c1ccncc1	-3.0	-1%	-35	-2	-4
CCCCCOc1ccccc1C(=O)NCC(=O)O	-2.6	4%	-22	1	-4
Cc1ccc(OCC(=O)N2CCCC(CO)(CCOc3ccccc3)C2)cc1 (stereo not given)	2.4	·	·	-11	·
CC(=O)NC(CCS(C)(=O)=O)C(=O)Nc1ccc(Oc2ccccc2)cc1 (stereo not given)	1.8	0%	-23	-4	13	Arbovirus anti repeat=-3
COc1ccccc1CNC(=O)C1CC(c2ccccc2C(F)(F)F)=NO1 (stereo not given)	-0.2	4%	·	-6	·
Cc1noc(C)c1C(=O)NCc1ccccc1Br	1.6	4%	·	7	-2
COc1ccc(/C=N\NC(=O)c2ccc([N+](=O)[O-])cc2)cc1COc1c(F)c(F)cc(F)c1F	-1.7	·	·	45	·
COc1ccc(-c2[nH]ncc2CN2CCCC2c2nonc2C)c(F)c1 (stereo not given)	2.6	·	·	6	1
N=c1n(CCN2CCCCC2)c2ccccc2n1CC(O)c1cccc(Br)c1 (stereo not given)	-5.4	-4%	-27	8	-46
(list continues)
SMILES	RecA splice inh	Mtb growth	YopH PTP inh	Mtb bLac sens	Arbovirus anti	others
Cc1nn(C)c(C)c1S(=O)(=O)N(CC(=O)NCc1ccco1)c1ccc(C(C)C)cc1	0.2	4%	-19	-3	4	Arbovirus anti repeat=3
CCOC(=O)C1CCCN(C(=O)Cn2nc(C)n3c(cc4c(OC)cccc43)c2=O)C1 (stereo not given)	2.5	·	·	?	·
Cc1cc(C)cc(OCCNC(=O)C(C)N2C(=O)c3ccccc3C2=O)c1 (stereo not given)	-0.9	2%	·	-2	3
O=C1c2ccccc2C(=O)c2c1ccc(C(=O)N1CCCCC1)c2NCCO	-1.5	6%	-4	17	5
CCCCN(CCCC)C(=O)CSc1nnc2n(C)c(=O)c3c4c(sc3n12)CCCC4	·	8%	5	·	25
O=C(O)C1CSC(c2ccncc2)N1 (stereo not given)	-1.4	0%	-11	-9	1
CCN(CC)S(=O)(=O)N1CCC(C(=O)NCc2ccco2)CC1	-0.3	0%	·	-5	8
COc1ccc(-c2ccc(SCC(=O)c3ccccc3)nn2)cc1OC	-1.9	-4%	·	-9	-19
COc1ccc(-c2cc(C(F)(F)F)nc(N3CCN(C)CC3)n2)cc1OC	-2.1	-11%	-16	-4	-2
O=S(=O)(Nc1ccc2c(c1)OCCO2)c1ccc(F)c(F)c1	0.6	·	·	3	·
CCOC(=O)c1cnc(SCc2cccc(C)c2)nc1N	0.3	-3%	-15	10	-3
COC(=O)C1=C(C)N(CCc2c[nH]c3ccccc23)C(=O)/C1=C\N(C)C	16	6%	·	-1	3
CCN1CCN(CCCNC(=O)CCC(=O)N2CCOc3ccccc32)CC1	-0.1	·	·	-3	·
CC(C)Cc1ccc(C(=O)NCc2ccc3c(c2)OCO3)o1	-0.6	·	·	0	·
c1cncc(C2CCCCN2Cc2ccc3c(c2)OCO3)c1 (stereo not given)	3.4	4%	-41	10	1	Arbovirus anti repeat=-1
Cc1noc(C)c1S(=O)(=O)Nc1ccc(C(=O)N2CCN(c3ccc(F)cc3)CC2)cc1	-1.5	-4%	·	1	2
CCCCC(=O)Nc1nnc(S(=O)(=O)N(CC)c2ccccc2)s1	-2.1	·	·	1	·
Cc1ccc(S(=O)(=O)N2CCOC23CCN(C(=O)C(=O)NCc2ccccc2)CC3)cc1	1.8	·	·	-1	·
Cc1oc2c(C)c3oc(=O)c(CC(=O)N[C@@H](CCCNC(N)=O)C(=O)O)c(C)c3cc2c1C	-7.8	·	·	-5	·
CN1CCC(OC(=O)COc2ccc(F)cc2)CC1	1.8	-4%	·	-7	0
CN=Cc1cc(-c2ccccc2)sc1O	-1.7	-3%	-15	0	-2
CC(=O)c1c(C)nc(-c2ccccc2)nc1NC(=O)Cc1ccccc1	-3.7	12%	·	-4	3
Cc1onc(-c2ccccc2)c1C(=O)NCc1ccc(Cl)cc1	-2.0	·	·	-3	·
O=C1CCN(Cc2ccc(Cl)cc2)N1	-6.0	·	·	5	·
Cc1ccc(-c2nc(Nc3ccc(O)cc3)c3ccccc3n2)cc1	11	·	·	65	·
O=C(NCc1cccnc1)c1csc2c1CCCC2	-2.4	6%	-40	6	-2
Cc1onc(-c2ccccc2)c1C(=O)Nc1ccnn1C1CCCCC1	-0.8	-2%	-20	-1	9
CCc1nc(N2CCOCC2)c(C#N)c2c1CCCC2	4.4	·	-14	15	11
CCOC(=O)C1CCCN(Cc2ccc(-c3ccccc3)cc2)C1 (stereo not given)	1.9	·	·	1	·
Cc1ccc(-c2csc(NC(=O)C3CCN(S(=O)(=O)c4cccs4)CC3)n2)cc1	0.5	8%	-21	-5	15
CCOC(=O)C1CCN(/C=C2\C(=O)NC(=S)N(CC)C2=O)CC1	-0.8	5%	·	2	2
O=C(NCc1ccco1)C1CC(c2ccc(C(F)(F)F)cc2)=NO1 (stereo not given)	2.0	7%	·	-3	·

Part of the list above in order of length of the SMILES, lowest first:
SMILES	RecA splice inh	Mtb growth	YopH PTP inh	Mtb bLac sens	Arbovirus anti	others
c1ccc(-c2nc3ccccc3c3nncn23)cc1	-2.8	·	-28	9	-7
Cc1cc(C)n2cc(COc3ccc4ccccc4c3)nc2n1	-0.7	-1%	-35	-2	-8
Cc1ccc2c(CN(C)Cc3ccccc3)cc(=O)oc2c1C	-2.3	·	·	1	·
CCN(CC)S(=O)(=O)N1CCC(C(=O)NCc2ccco2)CC1	-0.3	0%	·	-5	8
O=C(NCc1ccco1)C1CC(c2ccc(C(F)(F)F)cc2)=NO1 (stereo not given)	2.0	7%	·	-3	·
OCCC1CN(Cc2cc(F)ccc2-n2cccn2)CCN1Cc1ccc(F)cc1 (stereo not given)	2.1	-4%	·	1	·
CC(=O)NC(CCS(C)(=O)=O)C(=O)Nc1ccc(Oc2ccccc2)cc1 (stereo not given)	1.8	0%	-23	-4	13	Arbovirus anti repeat=-3
CCOc1cc(/C=N/Nc2nc3ccccc3[nH]2)cc(Br)c1OCC(=O)N(C)C	2.8	2%	·	9	-13
O=C(CSC1=N/C(=C/c2ccc(Cl)c(Cl)c2)C(=O)N1c1ccccc1F)NC1CC1	2.7	57%	-16	6	14
CCOc1cccc(C2C(C#N)=C(N)Oc3cc(C)n(Cc4ccccn4)c(=O)c32)c1OCC (stereo not given)	-0.1	0%	-3	-6	-2
CCC(C)c1ccccc1NC(=O)COC(=O)c1ccc2c(c1)S(=O)(=O)c1ccccc1C2=O (stereo not given)	3.0	-3%	-17	8	5
Cc1oc2c(C)c3oc(=O)c(CC(=O)N[C@@H](CCCNC(N)=O)C(=O)O)c(C)c3cc2c1C	-7.8	·	·	-5	·
